FGF22 binding: FGF22 (human) thermal shift binding. hit rate 1.5% among 340,000. calls only at 9.99 µM. recombinant FGF22 thermal shift, SYPRO orange fluorescence; percent of sucrose octasulfate shift, DMSO zero;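 active = melting point raised past a set limit in the mean and every replicate; inconclusive = no clear call; three in four hits are not shown here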
Target sequence (Q9HCT0 whole entry, looked up): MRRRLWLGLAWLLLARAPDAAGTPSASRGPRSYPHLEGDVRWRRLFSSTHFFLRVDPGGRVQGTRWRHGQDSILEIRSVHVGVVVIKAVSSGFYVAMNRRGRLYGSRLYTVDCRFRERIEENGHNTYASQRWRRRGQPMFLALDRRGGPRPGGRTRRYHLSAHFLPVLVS
Calb FLC: C. albicans growth modulation with fluconazole | growth inhibition, % (test concentration not listed) | hit rate 0.57% among 300,000 | C. albicans CaCi-2 (fluconazole-resistant clinical isolate) + fluconazole, Alamar Blue growth, 48 h;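 active = most replicates above 75%; inconclusive = exactly half above 75%; inactive = most below 75%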;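 also: all wells also contain fluconazole at 8 µg/ml as a sub-toxic cotreatment; 0% = median of DMSO wells and 100% = median of geldanamycin control wells; wells of about 8 µL received 7.5 nL stock; the first replicate is given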
ALR inh: human ALR oxidase inhibition via reduced H2O2 | P55789 | purified ALR, DTT oxidation, H2O2 HRP-luminol luminescence | inhibition, % (test concentration not listed) | hit rate 3.8% among 290,000;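 active = mean and each replicate at 75% or more; inconclusive = only one of the two met; inactive = neither met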;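 also: stock transfer was 7.5 nL into about 7.5 µL; 0% = neutral wells and 100% = wells with inactivated enzyme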
Target sequence (P55789 whole entry, looked up): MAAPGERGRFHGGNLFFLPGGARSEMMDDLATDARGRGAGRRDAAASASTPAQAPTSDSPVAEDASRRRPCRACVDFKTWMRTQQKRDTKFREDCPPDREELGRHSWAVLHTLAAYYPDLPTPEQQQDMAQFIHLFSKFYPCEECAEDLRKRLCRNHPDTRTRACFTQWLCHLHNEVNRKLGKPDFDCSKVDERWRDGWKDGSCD
AF4-AF9 inh: inhibitors of human MLL-AF4/AF9 interaction; P42568; AlphaScreen, biotin-AF4 peptide binding to FLAG-AF9; inhibition, % at 10 µM; hit rate 0.47% among 350,000; AID 651704;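 active = every replicate reaching a set inhibition limit, whatever the replicate mean, cut at about 25% in these data; inconclusive = mean inhibition reaches that limit but some replicates miss it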;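 also: 0% = plate neutral control median and 100% = total signal loss; the record names both 10 and 1 µM as test concentration; the first replicate is given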
Target sequence (P42568 whole entry, looked up): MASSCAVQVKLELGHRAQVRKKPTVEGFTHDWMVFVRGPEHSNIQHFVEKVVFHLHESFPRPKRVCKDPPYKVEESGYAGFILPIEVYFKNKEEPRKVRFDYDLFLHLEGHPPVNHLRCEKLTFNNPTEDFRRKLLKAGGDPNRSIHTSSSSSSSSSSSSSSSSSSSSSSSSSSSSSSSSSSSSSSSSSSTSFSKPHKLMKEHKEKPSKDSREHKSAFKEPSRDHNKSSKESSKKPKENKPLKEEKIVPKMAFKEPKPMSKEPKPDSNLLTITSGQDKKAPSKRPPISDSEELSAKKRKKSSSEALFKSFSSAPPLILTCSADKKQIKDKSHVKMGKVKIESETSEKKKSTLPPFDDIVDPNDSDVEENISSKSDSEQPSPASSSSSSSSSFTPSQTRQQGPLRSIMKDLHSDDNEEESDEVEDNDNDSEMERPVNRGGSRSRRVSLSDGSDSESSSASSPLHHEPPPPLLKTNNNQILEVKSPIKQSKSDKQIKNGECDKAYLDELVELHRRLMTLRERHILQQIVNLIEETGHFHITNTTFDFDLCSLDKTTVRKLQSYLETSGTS
Beta apoptosis: beta cell apoptosis inhibition; INS-1E cytokine-induced death, ATP luminescence, 48 h; percent of positive-control rescue, neutral wells zero; protection from apoptosis, % (concentration not given with the values); hit rate 0.8% among 300,000;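 active = all replicates at 75% or more, or half of them and the mean; inconclusive = half reach 75% but not the mean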;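 also: 0% = cytokine-treated negative control wells and 100% = positive control rescue; higher means more ATP so stronger rescue from cytokine killing; wells of about 40 µL received 100 nL stock; the first replicate is given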
Ecoli rRNA inh: inhibitors of bacterial rRNA selective over humanized ribosomes. E. coli WT GFP vs humanized-ribosome RFP mutants, fluorescence, 24 h; active compounds read low; DMSO median 0, no signal -100. GFP signal change (wild-type ribosome), % (no concentration beside the values). hit rate 1.6% among 350,000;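 active = significant combined selectivity score with lowered wild-type GFP, culture density cut under 30%, mutant RFP and density less affected; inactive = any of these conditions unmet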; also: one replicate is shown; some compounds called inactive have numbers as strong as hits
RanGTP-Impb inh: inhibitors of RanGTP-importin-beta interaction, primary screen, biochemical, FRET, CFP-Ran, YFP-importin-beta, homogeneous. cell-free CFP-Ran/YFP-importin-beta FRET ratio. inhibition, % (concentration not given with the values). hit rate 1.1% among 300,000. AID 2216;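 active = most replicates above 15%; inconclusive = exactly half above 15%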;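 also: 0% = DMSO wells and 100% = Ran loaded with GDP instead of GTP; wells of about 40 µL received 100 nL stock; the first replicate is given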
T cruzi repl: blocks replication of Trypanosoma cruzi | hit rate 1.4% among 300,000 | AID 1885 | inhibition, % (concentration not given with the values) | T. cruzi beta-gal in NIH3T3, luminescence, 90 h;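 active = mean inhibition across valid replicates above about 55%, limit read from the data; inconclusive = mean below that limit but half or more replicates reach it; inactive = mean below it, under half of replicates reach it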;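 also: signal also drops with host cell toxicity which is not excluded here; 0% = plate median of DMSO wells and 100% = zero luminescence signal; higher percent means less beta-gal luminescence so fewer parasites; stock transfer was 50 nL into about 50 µL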
Ecoli rRNA inh OD600: also measured in Ecoli rRNA inh; calls as there; OD600 change, %; measured here: OD600 growth;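 optical density of the mix in the first replicate; 0 = DMSO median and -100 = no signal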
Ecoli rRNA inh RFP: further read-out of Ecoli rRNA inh, marked with its call; RFP signal change, %; measured here: RFP humanized mutant strains;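 first replicate; 0 = DMSO median and -100 = no signal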
Active calls of the source: *; i = inactive; ? = inconclusive; . = not tested or not shown.

SMILES	Ecoli rRNA inh OD600	RanGTP-Impb inh	T cruzi repl	Ecoli rRNA inh RFP	Beta apoptosis	Ecoli rRNA inh	Calb FLC	ALR inh	AF4-AF9 inh	FGF22 binding
COc1cccc(C2C3=C(N=c4s/c(=C\c5cccc(O)c5)c(=O)n42)c2ccccc2CC3)c1OC (stereo not drawn)	13.6	-7.6	20.1	-0.1	2.9	10.2	22.3	-2.0	15.1	i
CNC(=O)c1c[nH]c2ccc(S(=O)(=O)Nc3cccc(SC)c3)cc2c1=O	9.5	2.6	10.5	2.4	1.8	11.4	-3.5	-9.2	-2.7	i
CC(=O)c1cc2c(cc1N)OCO2	.	-5.2	-8.1	.	-1.8	.	4.0	21.9	.	.
COc1ccc(C(CNCC(O)COc2c(C)ccc(C)c2C)N(C)C)cc1 (stereo not drawn)	-9.3	1.2	-25.0	6.1	0.3	-3.1	-7.2	.	3.6	i
O=C(CN1C(=O)NC2(CCCCC2)C1=O)Nc1ccccc1Cl	.	2.2	-25.3	.	4.0	.	0.0	.	.	.
Cc1nc2c(C)cccc2c(SC(=N)N)c1CC=C(Cl)Cl	4.2*	3.0	14.1	5.0*	-0.8	-20.9*	4.8	8.3	1.8	i
Cc1cc(N2C3CCC2CC(O)(c2ccc(F)cc2)C3)nc(-c2ccccc2)n1 (stereo not drawn)	.	-1.7	49.7	.	-1.4	.	26.2	-4.0	.	.
COc1cc(/C=N/Nc2cc(C)nc(NS(=O)(=O)c3ccc(C)cc3)n2)ccc1O	-3.2	.	-18.2	4.2	.	-2.6	5.1	.	-1.5	.
CCN(CC)C(=O)/C(=C\c1ccc2c(c1)OCO2)NC(=O)c1ccc(Br)cc1	.	-2.2	10.1	.	2.6	.	29.6	-10.2	.	.
COCc1cc(C)nc(N)c1C#N	.	-1.2	2.1	.	-4.3	.	-4.3	-2.8	.	.
Cc1cc(C(=O)OCC(=O)NC2CCCCC2)c(C)o1	.	-3.0	-16.1	.	-5.7	.	9.5	1.5	.	.
Cc1cccc(OCCCN2CCCCCC2)c1	.	5.9	7.2	.	0.0	.	-2.5	-2.3	.	.
COc1ccc(N2CCN(C(=O)c3oc4ccccc4c3C)CC2)cc1	-6.5*	-3.9	0.1	-5.0*	-4.9	-38.3*	-1.5	15.4	6.1	i
COCCCNC(=O)CN(c1cc(OC)ccc1OC)S(=O)(=O)c1ccccc1	.	3.2	-4.6	.	-4.3	.	2.6	-3.8	.	.
Cc1ccc2nc(-c3cccc(NC(=O)c4ccco4)c3)[nH]c2c1	.	0.4	-0.4	.	12.4	.	-6.2	4.3	.	.
CCOC(=O)C1C2C=CC3(CN(CCc4ccccc4)C(=O)C13)O2 (stereo not drawn)	.	-2.4	-14.9	.	-1.9	.	-2.4	-8.9	.	.
O=C1c2ccccc2C(=O)N1CCCSc1nc2ccccc2o1	.	-0.6	-7.7	.	-4.7	.	4.5	-0.5	.	.
COc1cc(C(=O)NCC(=O)N/N=C/c2ccc(OC(=O)c3ccco3)cc2)cc(OC)c1OC	3.1	-1.6	6.7	-0.1	0.8	4.5	-10.2	56.4	1.6	i
CC(C)(C)c1csc(NC(=O)c2c(F)c(F)c(F)c(F)c2F)n1	-52.8	-1.6	-7.8	-12.1	9.1	-40.8	0.5	97.7*	-21.4	i
COc1ccc(C(=O)CN2CCN(S(=O)(=O)c3cccc([N+](=O)[O-])c3)CC2)cc1	10.4	?	17.3	0.3	-0.6	16.8	24.9	-2.1	-1.6	i
CC(C)(C)C(=O)NC1CCN(C(=O)N2CCCC2)CC1	.	1.6	2.4	.	-0.2	.	5.0	-3.1	.	.
CC(Cl)C(=O)NNc1cccc(Cl)n1 (stereo not drawn)	.	0.0	.	.	-5.8	.	-4.3	96.6*	.	.
CC(NC(=O)c1sc2cc([N+](=O)[O-])ccc2c1Cl)C(C)(C)C (stereo not drawn)	-4.6	1.2	8.6	-8.5	-3.9	-7.9	-36.3	-3.9	-2.2	i
COc1ccc(C2C(C(=O)c3sc(C)nc3C)=C(O)C(=O)N2CCCn2ccnc2)cc1OC (stereo not drawn)	.	0.1	-7.8	.	-5.1	.	-6.3	-38.9	.	.
O=C(Nc1nc2c(Cl)ccc(Cl)c2s1)C1CC1	3.0	?	-24.4	2.4	6.1	-4.1	-2.5	9.1	-8.5	i

Some of the entries so far, as labelled records.
CC(=O)c1cc2c(cc1N)OCO2
  Ecoli rRNA inh OD600: .	RanGTP-Impb inh: -5.2	T cruzi repl: -8.1	Ecoli rRNA inh RFP: .	Beta apoptosis: -1.8	Ecoli rRNA inh: .	Calb FLC: 4.0	ALR inh: 21.9	AF4-AF9 inh: .	FGF22 binding: .

COc1ccc(C(CNCC(O)COc2c(C)ccc(C)c2C)N(C)C)cc1 (stereo not drawn)
  Ecoli rRNA inh OD600: -9.3	RanGTP-Impb inh: 1.2	T cruzi repl: -25.0	Ecoli rRNA inh RFP: 6.1	Beta apoptosis: 0.3	Ecoli rRNA inh: -3.1	Calb FLC: -7.2	ALR inh: .	AF4-AF9 inh: 3.6	FGF22 binding: i

O=C(CN1C(=O)NC2(CCCCC2)C1=O)Nc1ccccc1Cl
  Ecoli rRNA inh OD600: .	RanGTP-Impb inh: 2.2	T cruzi repl: -25.3	Ecoli rRNA inh RFP: .	Beta apoptosis: 4.0	Ecoli rRNA inh: .	Calb FLC: 0.0	ALR inh: .	AF4-AF9 inh: .	FGF22 binding: .

Cc1nc2c(C)cccc2c(SC(=N)N)c1CC=C(Cl)Cl
  Ecoli rRNA inh OD600: 4.2*	RanGTP-Impb inh: 3.0	T cruzi repl: 14.1	Ecoli rRNA inh RFP: 5.0*	Beta apoptosis: -0.8	Ecoli rRNA inh: -20.9*	Calb FLC: 4.8	ALR inh: 8.3	AF4-AF9 inh: 1.8	FGF22 binding: i

More records follow.
SMILES	Ecoli rRNA inh OD600	RanGTP-Impb inh	T cruzi repl	Ecoli rRNA inh RFP	Beta apoptosis	Ecoli rRNA inh	Calb FLC	ALR inh	AF4-AF9 inh	FGF22 binding
CCOc1ccc2[nH]c(C)c(CN3CCN(C)CC3)c(=O)c2c1	.	4.7	22.0	.	3.4	.	-0.7	-13.0	.	.
Cc1ccc(/C=C/C(=O)OCc2nc(N)nc(Nc3ccccc3C)n2)o1	1.3	2.3	-1.5	1.4	-4.8	11.4	-10.1	0.9	-14.0	i
O=C(NCc1ccco1)C(=O)NCC1OCCN1S(=O)(=O)c1cc(F)ccc1F (stereo not drawn)	10.4	-0.1	-1.4	-0.6	-7.0	8.7	0.3	-4.3	-19.4	i
O=C(NC1=NCCS1)c1cccc(Br)c1	13.1	0.3	1.9	0.9	0.7	17.2	-11.3	-6.2	-13.9	i
CC(C)[C@H](NC(=O)OCc1ccccc1)C(=O)OCC(=O)N1CCN(c2ccc(F)cc2)CC1	0.4	.	.	0.3	1.7	-0.9	.	-1.7	1.0	i
CCN(CC(=O)Nc1c(F)cccc1F)C(=O)CSc1nc(C)cc(C)n1	2.9	2.6	0.2	-3.7	-2.1	0.9	-14.7	0.1	-2.8	i
O=C(COc1ccc(S(=O)(=O)N2CCCC2)cc1)NCc1ccccn1	3.5	-4.7	-3.7	-0.3	-0.2	0.6	2.6	5.2	-4.6	i
Cc1noc(C)c1S(=O)(=O)N1CCC(C(N)=O)CC1	20.3	0.3	-2.5	0.0	2.2	8.2	-0.7	-4.1	-2.9	i
Cc1ccc(NC(=O)COC(=O)CC2CC3CCC2C3)cc1S(=O)(=O)N1CCOCC1 (stereo not drawn)	-24.6	.	.	2.3	-0.9	-23.8	.	-0.4	0.9	i
C[C@H]1CC[C@]2(O[C@H](CCO)C[C@H](O)[C@H]2O)O1	12.1	1.3	1.9	-6.0	-3.7	5.4	1.2	-12.3	4.7	i
O=C(CSc1cccc2cccnc12)NCc1ccco1	.	0.7	10.5	.	-0.2	.	2.8	-8.0	.	.
O=C(COc1ccccc1Cl)NC(=S)Nc1cccc(NC(=O)c2ccccc2Cl)c1	9.5	?	22.9	13.0	4.1	-4.1	-8.2	-2.7	-80.4	i
CCOCCn1c(-c2ccc(OC)cc2)nc2ccccc21	-8.7	2.6	-2.8	1.1	.	-9.3	-4.7	-11.8	-13.1	i
O=C(Nc1cccc(NC(=O)C2CCCO2)c1)c1ccco1 (stereo not drawn)	5.4	-0.9	-14.2	-3.4	-9.8	-2.3	-16.3	.	2.6	i
COc1cc(NC(=O)C2Cc3ccccc3CN2S(C)(=O)=O)cc(OC)c1 (stereo not drawn)	10.9	0.1	-5.1	-3.0	-4.9	5.0	5.2	1.1	-0.8	i
COC(=O)c1cc(COc2ccc3c(c2)oc(=O)c2ccccc23)c(C)o1	.	0.9	11.3	.	4.3	.	4.2	-8.2	.	.
CCN(CC(=O)NCc1cccs1)S(=O)(=O)c1c(F)cccc1F	5.8	.	.	-1.9	0.1	3.8	.	.	-0.6	i
COc1cc(C(=O)OCC(=O)Nc2ccc(N3CCOCC3)cc2)ccc1OCC(C)C	7.9	-1.2	-5.0	-3.3	12.9	9.8	-7.6	-0.3	6.1	i
CCCCCn1c(=O)[nH]c2c(c1=O)CCC2	.	1.6	-10.6	.	-7.0	.	-2.4	-0.7	.	.
CCO/N=C(/C)c1c(O)cc(C(C)(C)C)n(-c2ccccc2)c1=O	.	1.0	5.4	.	-3.8	.	29.8	0.9	.	.
CCOc1ccc(N2C(=O)CC(Sc3nnnn3-c3ccccc3)C2=O)cc1 (stereo not drawn)	14.7	?	25.3	0.2	.	13.6	-23.7	.	3.4	i
CC(C)Nc1nc(Cl)nc(Nc2ccccc2)n1	-17.9	2.9	-3.8	-5.0	-1.9	-11.0	-18.7	14.5	-1.3	i
Cc1ccc(C(=O)NCC(=O)Nc2ccncc2)cc1C	11.0	3.2	-4.5	-0.1	.	8.7	-6.2	0.4	-0.9	i
COc1ccccc1OCC(=O)OCC(=O)Nc1ncc(Cl)cc1Cl	.	2.5	-14.0	.	.	.	-11.2	-19.5	.	.
Cc1ccc(S(=O)(=O)NNC(=O)c2cc([N+](=O)[O-])c(C)c([N+](=O)[O-])c2)cc1	1.7	1.1	12.3	-1.8	6.3	4.7	10.6	23.7	0.9	i
Cc1ccc(/C=N/NC(=O)c2cc(-c3ccc(C)o3)[nH]n2)cc1	1.4	-3.2	-10.4	1.1	.	1.5	-1.4	61.5	-2.2	i
Cc1[nH]nc2c1C1(CCC3(CC1)OCCO3)C(C#N)=C(N)O2	8.0	-1.4	-6.0	-2.1	0.0	12.5	0.2	54.0	-0.4	i
c1coc(CSc2ncnc3c2oc2ccccc23)c1	-14.8*	7.9	11.0	7.1*	3.6	-22.9*	4.2	-2.4	1.3	i
CCn1c(CN2CCCCCC2=O)nnc1SCc1cnc(-c2ccccc2)s1	.	-0.7	15.6	.	4.1	.	78.3*	98.6*	.	.
CC(Sc1nc2ccccc2c(=O)n1CC1CCCO1)C(=O)NC(C)c1ccccc1 (stereo not drawn)	6.0	0.3	3.9	1.7	2.4	5.3	-1.0	2.9	-2.2	i

Screening results: PubChem BioAssay, Broad Institute

The list is partial (hit frequency here may not be typical).
